# Sa RN4220 lethal – S. aureus RN4220 growth inhibition; OD600, 16 h; inhibition, % (concentration not given with the values); 330,000 tested, 0.33% active; AID 1259311;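 active = z-score of -3 or lower and OD600 up to 0.18 on both plates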;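 note: plate controls were untreated cells for no effect and reference antibiotic for full effect; stock transfer was 100 nL into about 80 µL; one replicate is shown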
# PrP 5UTR inh – inhibition of PrP 5' UTR reporter expression | cell-based PrP 5' UTR mRNA reporter, plate reader | inhibition, % (no concentration beside the values) | 340,000 tested, 0.35% active;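 active = every replicate at 50% or more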;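 note: 0 = median of the neutral control wells; tested in H4 reporter cells; numbers are from one replicate; inactives centre near -14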
# BJeLR viability – BJeLR cell viability loss | inhibition, % (no concentration beside the values) | 300,000 tested, 0.17% active | BJeLR (HRASV12) viability, CellTiter-Glo ATP luminescence, 48 h; reference of the scale not given here;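 active = replicate mean above 50%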;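 note: 50 nL library stock added to about 25 µL; numbers are from one replicate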
# Sa ugtP lethal – growth inhibition of S. aureus ugtP deletion strain | S. aureus RN4220 ugtP deletion, OD600 growth, 16 h; some inactives read as strong as hits | growth inhibition, % (concentration not given with the values) | 330,000 tested, 0.54% active | AID 1259309;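 active = z-score under -3 and OD600 up to 0.15 on both plates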;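 note: plate controls were untreated wells for no effect and antibiotic for full effect; wells of about 80 µL received 100 nL stock; the first replicate is given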
# Autofluor counter – compound fluorescence in toxin protease inhibitor counterscreen; compound autofluorescence counterscreen, microsphere flow cytometry; hits give high values; fluorescence intensity (concentration not given with the values); 360,000 tested, 3.1% active;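 active = at least 3 SD above the mean of all compounds, about 16000 in these data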;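 note: 100 nL of 1 mM stock went into each well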
# Mtb hypoxia rep – reduces hypoxia-regulated biosensor signal in M. tuberculosis; 300,000 tested, 0.1% active; M. tuberculosis hypoxia-regulated fluorescent reporter, fluorescence; fluorescence inhibition, % (test concentration not listed);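 active = 35 to 45% if threefold the growth effect, above 45% if 1.5-fold the growth effect; inactive = the rest, general growth blockers included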;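 note: wells of about 50 µL received 100 nL stock; 0% = vehicle wells and 100% = reference inhibitor wells; whole bacteria with a GFP reporter of the hypoxia response; strong numbers were not always called active; many hits fall short of the cut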
# Mtb hypoxia rep growth – also measured in Mtb hypoxia rep; calls as there; growth inhibition, %; measured here: M. tuberculosis growth (absorbance);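 0% = vehicle and 100% = reference antibiotic; read after six days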
# Active calls of the source: *; . = no result given; & = joins results of further samples.
nr	SMILES	Sa RN4220 lethal	PrP 5UTR inh	BJeLR viability	Sa ugtP lethal	Autofluor counter	Mtb hypoxia rep	Mtb hypoxia rep growth
1	O=C(/C=C/c1ncc(C(F)(F)F)cc1Cl)OCc1ccccc1	2.5	.	-1	35	11355	3	9
2	O=C1COc2cccnc2N1	5.6	-25	-2	-10	10895	6	5
3	O=C(NCc1ccccc1)C1(C(F)(F)F)CC(=CCCO)CCCO1 (configuration not stated)	6.3&3.7	.	.	1&-4	.	10&11	10&4
4	COc1ccc(N2CCN(CC(=O)Nc3c(C)cc(C)cc3C)CC2)cc1	-4.8	-12	-5	-7	17139*	-8	-2
5	Cc1ccc(CNC(=O)C(=O)NCC2OCCN2S(=O)(=O)c2ccc3c(c2)OCCO3)cc1 (configuration not stated)	6.5	-6	7	5	4459	1	1
6	COC(=O)CCCC(=O)N1CCC(CCC(=O)NC2CC2)CC1	-0.1	-24	4	3	.	-1	-12
7	O=C(NC1CCCCC1)c1ccc(OC2CCN(Cc3ccccn3)CC2)cc1	1.0	-11	7	6	5605	5	8
8	CCCc1ccc(OCCNC(=O)CC)cc1	3.8	-57	-12	10	11219	-2	-1
9	O=c1[nH]c2ccccc2nc1C(Nc1ccccc1)c1ccccc1 (configuration not stated)	-0.4	-17	-8	-3	4148	10	6
10	CCN1C(=NCc2ccco2)NC(c2cccc(F)c2)C(C(=O)OC)=C1C (configuration not stated)	-3.9	.	.	-7	.	-3	-3
11	O=C(Nc1ccccc1Cl)C1CCCN(S(=O)(=O)c2cccc3cccnc23)C1 (configuration not stated)	-6.9	-16	4	-6	4236	-6	-3
12	COc1ccc(C(=O)Nc2ccc(S(=O)(=O)Nc3nccc(C)n3)cc2)cc1[N+](=O)[O-]	2.3	-13	3	2	3953	.	.
13	CCCCC(=O)OCc1cn(-c2ccc(Cl)cc2)nn1	4.7	-17	12	-8	22405*	8	2
14	CC(=O)Nc1ccc(-c2c(C)cc3oc(=O)cc(-c4ccccc4)c3c2C)cc1	-1.9	3	.	-21	3631	.	.
15	Cc1cc(C)cc(NC(=O)N2CCCC2C(=O)Nc2ccc(-n3cnnn3)c(C)c2)c1 (configuration not stated)	17	-12	2	3	3313	-1	15
16	O=C(O)c1cccc(CSc2ncccn2)c1	6.5	-48	-1	-4	4331	-2	11
17	CC(=O)c1c(OC(=O)c2ccccc2)c2ccccc2n1C	0.9	-11	-4	39	5406	6	10
18	COc1cc2c(cc1OC)C(COc1ccc(F)cc1)NCC2 (configuration not stated)	0.9	11	-2	-3	4797	-1	2
19	CCCCNC(=O)N(O)C1N(/N=C/c2ccccc2OC)C(=S)SC1(C)C (configuration not stated)	.	-22	-1	.	3477	.	.
20	CCc1nnc(NC(=O)CSc2nnc3ncccn23)s1	6.2	-12	-8	-1	20884*	6	7
21	COc1ccccc1OCCNC(=O)C1CCCCC1	6.4	-34	.	3	3877	14	4
22	CC1CC(C)CN(C(=O)C2CCCN(S(=O)(=O)c3cnc[nH]3)C2)C1 (configuration not stated)	5.8	-6	15	2	4594	8	-1
23	Cc1cc[n+](CC(=O)c2ccc3c(c2)OCCO3)cc1	10	-20	-18	1	2211	-1	-1
24	O=C(COC(=O)c1ccc(O)cc1O)Nc1ccc2c(c1)OCCO2	-2.5	-40	.	4	8104	7	5
25	Cc1ccc(CSc2nnc(NC(=O)C3=COCCO3)s2)cc1	0.9	-17	.	-6	3204	3	1
26	CNC(=O)c1ccsc1NC(=O)c1ccc(S(=O)(=O)N2CCOCC2)cc1	9.2	-31	-6	-4	2466	-4	1
27	O=C(O)c1cccc(NS(=O)(=O)c2ccc(Cl)c(C(=O)O)c2)c1	2.6	-81	0	2	9689	1	-10
28	O=C1C=C(c2ccc(Cl)c(C(F)(F)F)c2)CC(c2ccc3c(c2)OCO3)C1 (configuration not stated)	-5.2	.	.	50	.	3	-2
29	COc1ccc2cc(C(=O)NN=Cc3cc(OC)c(OC)c(OC)c3)[nH]c2c1	0.1	.	.	-22	.	-4	5
30	CC(C)Nc1ncnc2ccc(Br)cc12	7.2	-5	-8	6	2190	3	6

# An excerpt from above, reduced to Sa ugtP lethal, Autofluor counter and BJeLR viability.
No. | molecule | Sa ugtP lethal | Autofluor counter | BJeLR viability
16 | O=C(O)c1cccc(CSc2ncccn2)c1 | -4 | 4331 | -1
6 | COC(=O)CCCC(=O)N1CCC(CCC(=O)NC2CC2)CC1 | 3 | . | 4

# The list continues.
nr	SMILES	Sa RN4220 lethal	PrP 5UTR inh	BJeLR viability	Sa ugtP lethal	Autofluor counter	Mtb hypoxia rep	Mtb hypoxia rep growth
31	CC1=NNC(=O)C1CCC(=O)NN=Cc1ccco1 (configuration not stated)	-2.4	.	.	-2	.	4	0
32	NS(=O)(=O)c1ccc(NC(=O)/C=C/c2ccccc2Cl)cc1	.	-12	-2	.	4421	.	.
33	CN1CCC(=NNC(=O)C(=O)Nc2ccccc2)CC1	4.3	-39	3	2	9325	0	1
34	Cc1nn(C)c(C(=O)NC(=S)Nc2ccccc2O)c1Cl	4.9	-10	4	-2	6035	4	-8
35	CN1c2ccccc2C(C)(C)C12CC(c1ccc(Cl)c(S(=O)(=O)N3CCCC3)c1)=NO2 (configuration not stated)	1.4	.	23	8	.	9	8
36	COc1ccc(S(=O)(=O)Nc2cc(C(=O)NCCC(C)C)ccc2N2CCOCC2)cc1	3.7	5	-5	-4	23444*	-13	1
37	COC(=O)c1cc(S(=O)(=O)NCc2ccc(S(N)(=O)=O)cc2)oc1C	-0.5	-16	2	8	4307	9	-2
38	CC(C)c1ccc(S(=O)(=O)N2CCN(C(=O)[C@@H]3CCCN3C(=O)c3cccs3)CC2)cc1	2.5	-20	.	2	5909	-13	-2
39	CCOC(=O)CCC(=O)N(CCN(C(=O)CCC(=O)OCC)c1ccccc1)c1ccccc1	2.3	-13	-23	2	2482	-6	0
40	Oc1c(CN2CCOCC2)cc(CN2CCOCC2)c(O)c1CN1CCOCC1	0.8	8	.	0	4365	0	0

# Full records, looked up by structure.
# Profile of `NS(=O)(=O)c1ccc(NC(=O)/C=C/c2ccccc2Cl)cc1` → Sa RN4220 lethal: .; PrP 5UTR inh: -12; BJeLR viability: -2; Sa ugtP lethal: .; Autofluor counter: 4421; Mtb hypoxia rep: .; Mtb hypoxia rep growth: .
# Profile of `COC(=O)c1cc(S(=O)(=O)NCc2ccc(S(N)(=O)=O)cc2)oc1C` → Sa RN4220 lethal: -0.5; PrP 5UTR inh: -16; BJeLR viability: 2; Sa ugtP lethal: 8; Autofluor counter: 4307; Mtb hypoxia rep: 9; Mtb hypoxia rep growth: -2

# Remaining list, next part:
nr	SMILES	Sa RN4220 lethal	PrP 5UTR inh	BJeLR viability	Sa ugtP lethal	Autofluor counter	Mtb hypoxia rep	Mtb hypoxia rep growth
41	CC1CCN(S(=O)(=O)c2cn(CC(=O)N3CC(C)CC(C)C3)c(=O)c3ccccc23)CC1 (configuration not stated)	5.7	-10	-1	9	7397	7	-3
42	CCC(=NNS(C)(=O)=O)c1ccccc1	1.7	.	.	3	.	5	2
43	COc1cccc(OCCSc2nc3ccccc3c(=O)[nH]2)c1	7.1	-14	12	1	3505	7	6
44	COc1ccc(OC)c(C(C)NC(=O)C(C)n2cc([N+](=O)[O-])cn2)c1 (configuration not stated)	7.1	-18	.	6	3483	7	6
45	O=C1CC(c2ccccc2)CC(=NCCO)/C1=C(/O)CCCN1C(=O)c2ccccc2C1=O (configuration not stated)	0.8	.	.	6	.	9	5
46	O=C(COC(=O)/C=C/c1ccccc1Cl)NC(=O)NC1CCCC1	5.1	2	.	5	5125	2	-2
47	CCOC(=O)C1(CCCc2ccccc2)CCN(CC(O)CO)CC1 (configuration not stated)	2.3	-2	-1	8	5221	-4	15
48	CCOC(=O)c1c(NC(=O)C(Sc2ccccc2)c2ccccc2)sc(C(=O)N(C)C)c1C (configuration not stated)	9.6	-6	4	0	2345	-1	2
49	CC(C)(C)NC(=O)CSc1nc(O)cc(=O)[nH]1	-1.2	-14	2	1	2208	2	7
50	CSc1cc(N2CCOCC2)nc(-c2ccccc2Cl)n1	2.7	-4	-13	11	10142	-4	-1
51	COc1ccccc1CNC(=O)CSc1nc(C)cs1	5.0	-23	-2	16	4434	6	9
52	CCOc1ccc(-c2c(C(=O)NN=Cc3c[nH]c4ccccc34)nnn2-c2nonc2N)cc1	3.6	.	.	-3	.	-12	-8
53	CCCn1c(SCC(=O)c2[nH]c(C)c(C(C)=O)c2C)n[nH]c1=O	1.9	-14	8	1	4802	-4	-2
54	COc1ccccc1NC(=O)C(Sc1ccccc1)c1ccccc1 (configuration not stated)	.	2	0	.	2448	.	.
55	O=S(=O)(c1ccccc1)c1ccc(C(F)(F)F)cn1	3.2	-20	-1	7	2596	11	12
56	Cc1cc([N+](=O)[O-])ccc1Nc1nc2ccccc2n2cnnc12	1.0	-13	-2	4	3575	2	-6
57	CN1C(=S)N(c2cccnc2)C(=O)/C1=C\c1ccc(C(C)(C)C)cc1	-0.6	0	11	12	4483	9	6
58	Cc1ccc(Nc2ccccc2)cc1	10	2	4	-1	4305	.	.
59	CCC(Sc1nc2ccccc2c(=O)n1CCN1CCOCC1)C(=O)NCc1cccnc1 (configuration not stated)	0.7	-29	-6	-3	9881	5	20
60	CC1CCN(C(=O)c2[nH]cnc2C(=O)N[C@@H](C)C(=O)OC(C)(C)C)CC1	.	-13	3	.	3590	.	.
61	CC/C(=N\NC(=S)NC(C)C)c1ccc(OC(F)F)cc1	.	-18	20	.	3339	.	.
62	COc1ccc(/C=N/NC(=O)c2ccncc2)cc1CN1CCN(c2ccc(F)cc2)CC1	.	-20	-40	.	3402	.	.
63	Cc1cc2c(nn1)CCc1nonc1-2	2.2	-14	-4	-3	10296	4	7
64	Nc1c(C(=O)OCC2CCCO2)c2nc3ccccc3nc2n1C1CCCC1 (configuration not stated)	-1.2	-21	-1	-13	32531*	-15	-4
65	COc1ccccc1NC(=O)N(CCN1CCCC1)Cc1cc2cc(C)ccc2[nH]c1=O	2.7	6	5	-4	23245*	5	6
66	Cc1ccc(C)c(NC(=O)C(C)N2C(=O)c3ccccc3C2=O)c1 (configuration not stated)	5.9	-27	2	7	3990	0	3
67	O=C(CSc1nnc(-c2ccco2)o1)NC(=O)C1COc2ccccc2O1 (configuration not stated)	23	-3	3	17	2551	5	9
68	O=C(CC1(O)C(=O)Nc2ccccc21)c1cccnc1 (configuration not stated)	9.6	-21	-3	3	6656	2	0
69	NS(=O)(=O)c1ccc(CNC(=O)CNC(=O)c2ccc(F)cc2)cc1	1.6	-12	0	5	3744	17	-4
70	CNC(=S)NNS(=O)(=O)c1ccc(OC)cc1OC	5.2	9	-4	1	4497	7	-3
71	NC(=O)c1ccc(NC(=O)COC(=O)C(Cc2ccccc2)NC(=O)c2ccccc2)cc1 (configuration not stated)	-3.2	-2	2	-7	2084	4	4
72	S=C(Nc1ccc2nsnc2c1)N1CCCC1	6.1	-42	1	6	4436	5	9
73	COC(=O)c1ccc(COc2ccc3c4c(c(=O)oc3c2)CCC4)o1	-2.2	-17	2	-6	8666	-4	0
74	COc1ccc(N(CC(=O)NCc2ccccc2C)S(=O)(=O)c2ccc(C)cc2)cc1OC	3.5	-28	3	-7	5230	11	2
75	O=C1NC2(CCCCC2)C(=O)N1c1ccccc1	2.7	-24	-17	-7	3736	10	12
76	COc1ccc(/C=C2\CCn3c2nc2cc(C(=O)O)ccc2c3=O)cc1OC	4.1	-2	-2	5	4308	-1	2
77	CN(C)S(=O)(=O)c1cccc(-c2cn3ccccc3n2)c1	-2.5	-21	8	1	2379	16	5
78	COc1ccc(-n2c(O)c(C(C)=NC3CC3)c(=O)[nH]c2=O)cc1	-7.7	-39	-4	-1	3212	20	7
79	Cc1ccc(CCNC(=O)c2ccc3nc4ccccc4c(=O)n3c2)cc1	0.0	-14	5	10	3823	9	6
80	O=C(N/N=C/c1cccc(NC(=O)c2ccc(Cl)cc2)c1)c1ccc(O)cc1	.	-27	9	.	5147	.	.
81	CC(C)c1ccc2[nH]c(O)c(N=NC(=O)c3cccc(S(=O)(=O)N4CCCCC4)c3)c2c1	8.7	-14	-12	-1	10229	-1	10
82	O=C(Nc1ccccc1Cl)O/N=C(/c1ccccc1)c1ccccn1	.	-11	2	.	2610	.	.
83	CN1CCN(C2=NC(=O)/C(=C/c3ccccc3OS(=O)(=O)c3ccccc3)S2)CC1	4.0	-18	5	4	5437	12	9
84	Cc1cc(/C=C(\C#N)C(=O)Nc2ccccc2)c(C)n1-c1ccc2c(c1)OCO2	8.9	-17	-9	-24	20884*	5	8
85	COc1ccc(N2CCN(CCCNC(=O)c3ccc(CS(=O)(=O)c4ccc(OC)cc4)o3)CC2)cc1	4.3	-1	5	1	5415	2	3

# Screening data as filed in PubChem BioAssay.
